Menin MLL FP FL = menin-MLL binding inhibition, fluorescein peptide | Fluorescence polarization, fluorescein-MLL peptide displacement from menin | FP activity change, % at 61.4 µM | 290,000 tested, under 10 active; inconclusive = falling polarisation curve, or a change in total fluorescence; inactive = total fluorescence flat and polarisation flat or rising; no compound was filed as active; the % refers to the polarisation; negative = inhibition;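 further: % of control where 0% means no effect; inhibitors lower the polarisation; unlabelled MLL peptide was the positive control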
TRPV1 potentiator = potentiators of human vanilloid receptor 1 (TRPV1); Q8NER1; TRPV1-expressing cells, Fluo-8 calcium influx, capsaicin EC20 potentiation; host cell line not named in the record; control for the full effect not named in the record; potentiation, % at 8.33 µM; hit rate 0.02% among 320,000; active means potentiation above 80%; inconclusive means 30% to 80%; inactive means below 30%; further: 0% is about no effect
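TRPV1-expressing cells were cultured overnight at 35.5C and loaded with Fluo-8 calcium dye for 40 to 90 min at room temperature. After a 10 s baseline, compound was added and calcium influx was read kinetically for 3 min (ex 480/em 520 nm).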
TRPML1 inh = human mucolipin-1 channel inhibition. Q9GZU1. TRPML1-inducible cells, Ca2+ dye fluorescence, FDSS; stronger effect = lower value; inhibition of EC80 agonist-evoked calcium signal. activity change, negative = inhibition, % (concentration not given with the values). hit rate 0.02% among 390,000. AID 624415; in the data active means activity change below about -50%; inconclusive means about -30% to -50%; inactive means above about -30%;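 further: stimulus is agonist 54-4 at its EC80 concentration; on the % scale 0 is the no-effect control and ±100 the full control effect; compound concentration not given in the record; the text of the record puts the active cut at -80%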
Target sequence (Q9GZU1 whole entry, looked up): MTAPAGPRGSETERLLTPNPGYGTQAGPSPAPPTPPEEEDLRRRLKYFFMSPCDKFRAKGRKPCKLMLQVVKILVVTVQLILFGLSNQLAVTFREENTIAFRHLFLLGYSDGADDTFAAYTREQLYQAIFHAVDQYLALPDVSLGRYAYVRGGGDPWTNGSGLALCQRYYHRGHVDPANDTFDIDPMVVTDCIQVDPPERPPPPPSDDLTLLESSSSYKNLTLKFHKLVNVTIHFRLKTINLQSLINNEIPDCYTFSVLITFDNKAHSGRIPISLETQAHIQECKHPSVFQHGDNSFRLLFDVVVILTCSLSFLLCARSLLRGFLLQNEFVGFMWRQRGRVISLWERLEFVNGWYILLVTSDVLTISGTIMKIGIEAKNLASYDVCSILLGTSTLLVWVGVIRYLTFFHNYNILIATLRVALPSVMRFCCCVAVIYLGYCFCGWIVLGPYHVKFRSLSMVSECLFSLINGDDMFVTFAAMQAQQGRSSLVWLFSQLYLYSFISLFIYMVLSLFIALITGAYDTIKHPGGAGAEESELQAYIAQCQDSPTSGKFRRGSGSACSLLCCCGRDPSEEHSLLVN
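Calcium fluorescence in TRPML1-DL cells induced overnight with Tet: a 110 s read after compound pin addition, then a 110 s antagonist read after challenge with 54-4 at 4 uM final (EC80).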
Sfp PPTase inh = blocks B. subtilis Sfp PPTase activity. Q9F4F7. Biochemical Sfp PPTase activity, qHTS. Potency, µM, for the others: max response, negative = inhibition, most hits filed as inhibitors. hit rate 3.5% among 310,000; active means well fitted inhibition curve with a large enough effect; inconclusive means small, poorly fitted or top-dose-only effect, or another doubt; inactive means no such curve, though single readings can be large or run the other way;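 further: the enzyme is Sfp with the accession as filed and its product quenches rhodamine fluorescence; potency means the concentration at half of the fitted maximal effect; 0% = enzyme reaction without inhibitor and -100% = no enzyme wells; top concentration of the series not given in the record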
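After 15 min at room temperature with compound, 15 nM Sfp received 5 uM rhodamine-CoA plus 12.5 uM BHQ-2-ybbR (50 mM Hepes pH 7.6, 10 mM MgCl2). Rate came from the fluorescence difference over 30 min, ex 525/em 598 nm.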
gsp antag = antagonizes gsp, the McCune-Albright syndrome mutation | gsp-mutant cells, cAMP HTRF, 30 min; control for the full effect not named in the record | Potency, µM (top dose mostly 76.9 µM), without a hit: at the top dose activity change, negative = inhibition, most hits filed as inhibitors | hit rate 0.4% among 340,000 | AID 624288; active = falling curve of any shape with a large fitted effect; inconclusive = falling curve, mostly with a smaller effect; inactive = flat or rising curve; cell line not stated here;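 further: intracellular cAMP measured with PDE inhibitor Ro 20-1724 present during compound exposure; potency means the concentration at half of the fitted maximal effect; on the % scale 0 is the no-effect control and ±100 the full control effect; nearly all actives have a fitted effect of over 65% in size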
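G418-selected cells were plated in DMEM/10% FBS for 16-24 h at 37C, then treated with compounds plus the PDE inhibitor […] (300 uM solution added) for 30 min at 37C. Intracellular cAMP was measured by HTRF after 30 min lysis at room temperature.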
ClpP mod = qHTS Assay for Activators of ClpP; hit rate 1.9% among 340,000; purified B. subtilis ClpP, FRET peptide cleavage, 20 min; Potency, µM (series often up to 57.5 µM), for the others: at the top dose activity change, negative = active; AID 651965, 2013; active = well fitted falling curve with a large enough effect; inconclusive = small, poorly fitted or top-dose-only effect; inactive = no such curve, though single readings can be large or run the other way; further: potency means the concentration at half of the fitted maximal effect; the source files actives as falling curves though it sought activators and does not explain the sign; nearly all actives have a fitted effect of over 65% in size; many hits overshoot -100%
Target sequence (P80244 whole entry, looked up): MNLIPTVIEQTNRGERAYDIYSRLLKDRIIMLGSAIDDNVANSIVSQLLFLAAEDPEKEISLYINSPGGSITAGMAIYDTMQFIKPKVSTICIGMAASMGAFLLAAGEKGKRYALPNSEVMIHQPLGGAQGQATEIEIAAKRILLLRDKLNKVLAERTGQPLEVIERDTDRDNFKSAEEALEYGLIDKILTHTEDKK
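FRET quenching reversal measured ClpP activation: 10 microg/mL B. subtilis ClpP at pH 8 with the FRET-FV decapeptide, read at 430 nm after 320 nm excitation. The 20-min minus 0-min signal was scaled between DMSO/no-enzyme wells and ADEP (5.8 microM final).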
gsp agonist = agonists of gsp mutant (McCune-Albright syndrome); gsp mutant cells, cAMP HTRF, 30 min; control for the full effect not named in the record; Potency, µM (titrated, usually from 76.9 µM), inactives show top-dose activation (cAMP increase), hits mostly activators; hit rate 0.13% among 340,000; active = well fitted activation curve with a large enough effect; inconclusive = small, poorly fitted or top-dose-only effect, or another doubt; inactive = no such curve, though single readings can be large or run the other way; cell line not stated here;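 further: phosphodiesterase inhibitor Ro 20-1724 added with compounds to block cAMP breakdown; potency means the concentration at half of the fitted maximal effect; nearly all actives have a fitted effect of over 60% in size; about a fifth of the inactives were tested at one dose only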
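Cells stably selected in G418 were plated at 2000/well, grown 16-24 hr, then given compounds in DMSO with the PDE inhibitor […] (300 uM solution added) for 30 min at 37C; cAMP was read by HTRF.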
Numbers without * were called inactive; ? = inconclusive; · = no result given; & = joins results of further samples; [ ] = remark or other dose.

SMILES	Menin MLL FP FL	TRPV1 potentiator	TRPML1 inh	Sfp PPTase inh	gsp antag	ClpP mod	gsp agonist
CC(=O)CC(C)(C)Nc1nc2cc([N+](=O)[O-])ccc2o1	0.3	28.8	11.1	18.6%	-0.1%	1.0%	3.6%
COc1ccc([C@@H]2[C@H]3CN(C(C)=O)CC=C3C(C#N)=C(N)C2(C#N)C#N)c2ccccc12	22.1	0.6	-12.6	10.2%	-2.7%	0.6%	1.6%
C/C(CC(=O)NC12CC3CC(CC(C3)C1)C2)=N\NC(=O)c1ccc(F)cc1	-1.5	-16.2	-9.5	19.3%	·	·	-1.3%[15.4 µM]
CCN(Cc1ccncc1)Cc1cn[nH]c1-c1ccc(OC)cc1F	0.6	11.6	7.8	6.1%	4.3%	·	7.3%
CCCOC(=O)c1ccc(OCC(O)CN2CCN(C(=O)c3ccccc3)CC2)cc1 (stereo not given)	2.3	2.6	23.4	-14.5%	-1.4%	-2.4%	-6.6%
O=C(CNC(=O)C1COc2ccccc2O1)N/N=C/c1ccc(O)cc1O (stereo not given)	6.8	6.1	15.7	29.1%	13.9%	-10.4%	-1.3%
CCOc1ccc(CNc2ncnc(N)n2)cc1	0.6	12.9	57.6	9.5%	15.9%	0.4%	16.5%
O=C(NC1CCCc2ccccc21)C1CCC(CNc2c(N3CCOCC3)c(=O)c2=O)CC1 (stereo not given)	0.4	-1.6	40.6	-13.8%	4.7%	-0.3%	-1.7%
CCN(C(=O)CN1C(=O)/C(=C/c2ccccc2F)SC1=S)C1CCS(=O)(=O)C1 (stereo not given)	·	28.4	-5.8	5.6%	-2.7%	0.6%	4.9%
CCN1CCCC1CNC(=O)c1cc(S(N)(=O)=O)ccc1OC (stereo not given)	3.5	·	10.4	25.2%&-7.9%	1.9%	0.1%	·
O=c1c2ccccc2sn1-c1ccc(S(=O)(=O)N2CCCCC2)cc1	·	·	-1.8	·	0.5%	-1.2%&-2.4%&-2.0%	-1.7%
O=C(O)CSCc1nc2ccccc2s1	-0.2	3.8	12.9	10.4%	3.4%	-1.0%	?
Cc1ccc(-n2nc3c(=O)n(CCCC(=O)NCc4ccc(C)o4)nc(C)c3c2C)cc1	0.6	5.9	39.1	6.8%	-11.0%	-1.3%	9.1%
Cc1nn(CC(=O)NCCc2ccccc2)c(=O)c2cccn12	-7.5	-0.6	24.4	3.8%	0.0%	2.1%	-10.6%
Cc1nnc(Sc2c(N)n(C)c(=O)n(C)c2=O)s1	-0.3	-2.5	11.5	4.3%	7.4%	1.5%	11.9%
CC(=O)C(C(c1ccccc1)N1CCOCC1)N1CCOCC1 (stereo not given)	·	·	-3.4	·	7.3%	·	-5.6%
CC(C)(C)c1ccc(C(=O)NCC(=O)OCC(=O)c2ccc3c(c2)-c2ccccc2C3)cc1	2.4	4.0	-11.0	8.2%	4.9%	-9.5%	-1.5%
Cc1cccc(-c2cc3nc(-c4ccccc4)cc(N4CCC5(CC4)OCCO5)n3n2)c1	1.2	15.5	82.6	-5.2%	-0.2%	3.16µM*	3.2%
CCCOc1ccc(/C=N/NC(=O)c2nnn(-c3nonc3N)c2-c2cccs2)cc1OC	·	1.0	-3.3	9.2%	31.6µM*	3.6%	-21.6%
Cc1cc(OCC(=O)Nc2nnc(C3CC3)s2)ccc1[N+](=O)[O-]	-2.2	5.3	-15.1	-8.1%	-13.7%	·	4.7%[15.4 µM]
CN1N=C(C(=O)N2CCN(c3ccc([N+](=O)[O-])cc3)CC2)CCC1=O	4.8	-10.0	8.1	-2.5%	-9.3%	-1.3%	?
Cc1ccc(S(=O)(=O)N2CCOCC2)cc1NC(=O)CSc1nccn1C	0.2	3.0	-15.8	9.5%	-3.9%	0.8%	4.9%
Cc1ccc(S(=O)(=O)Cc2c(C)noc2C)cc1	1.9	-3.2	3.6	-4.2%	3.9%	0.8%	19.0%
O=C(OCC(=O)N1CCN(C(=O)c2ccco2)CC1)c1sc2cc(F)ccc2c1Cl	3.2	-15.8	24.7	-19.0%	-0.4%	2.3%	13.8%
COc1ccccc1CN1CCc2c([nH]c3ccccc23)C1	-0.5	-7.3	7.8	-8.8%	-5.6%	-17.4%	-2.7%
COc1cccc(Nc2nnc(SCC(=O)Nc3sccc3C(N)=O)s2)c1	1.6	24.4	16.2	?	?	-2.6%	1.4%
CC(=O)N1CCN(c2ccc(Nc3nc(C)nc4c3oc3ccccc34)cc2)CC1	1.9	-4.2	12.1	5.8%	-6.2%	-0.5%	14.2%[15.4 µM]
NC(=O)c1ccsc1NC(=O)c1ccc(S(=O)(=O)N2CCCC2)cc1	-1.0	-6.2	-4.6	7.1%	-10.2%	-3.2%	17.3%
Cc1cc(Br)cc(C)c1NC(=O)c1ccc(C#N)cc1F	0.7	2.4	4.9	19.8%	13.4%	·	-30.1%[inhibitor]
CCOC(=O)c1cc2c(=O)n3cccc(C)c3nc2n(CCCOC)c1=NC(=O)c1cccnc1	6.4	-3.7	3.6	18.5%	7.6%	15.8µM*	?

Fetched by structure from the list above:
SMILES	Menin MLL FP FL	TRPV1 potentiator	TRPML1 inh	Sfp PPTase inh	gsp antag	ClpP mod	gsp agonist
CC(=O)N1CCN(c2ccc(Nc3nc(C)nc4c3oc3ccccc34)cc2)CC1	1.9	-4.2	12.1	5.8%	-6.2%	-0.5%	14.2%[15.4 µM]
Cc1cc(Br)cc(C)c1NC(=O)c1ccc(C#N)cc1F	0.7	2.4	4.9	19.8%	13.4%	·	-30.1%[inhibitor]
Cc1ccc(-n2nc3c(=O)n(CCCC(=O)NCc4ccc(C)o4)nc(C)c3c2C)cc1	0.6	5.9	39.1	6.8%	-11.0%	-1.3%	9.1%

(continued)
Values in the order: Menin MLL FP FL, TRPV1 potentiator, TRPML1 inh, Sfp PPTase inh, gsp antag, ClpP mod, gsp agonist
- CC(C)c1ccc(S(=O)(=O)c2n[nH]n3c2nc(=O)c2ccccc23)cc1
    5.5, -1.0, 24.1, 14.5%, ?, 25.1µM*, -16.1%
- CCc1nc2ccccc2n1Cc1ccccc1F
    -1.2, 1.8, 25.1, -8.3%, -0.6%, ·, -5.1%[15.4 µM]
- COc1ccc(CCNC(=O)c2sc3ccccc3c2Cl)cc1OC
    -0.5, 24.5, -2.8, -10.4%, -27.7%, 1.3%, -19.3%
- C[C@H](CO)N1C[C@H](C)[C@H](CN(C)C(=O)c2ccccc2F)Oc2ncc(Br)cc2C1=O
    ·, ·, 2.1, ·, ·, -0.7%, -9.5%
- Cc1cccc(C)c1NC(=O)CCCSc1nnc(-c2ccc(Cl)cc2)n1-c1ccccc1
    -1.2, 3.3, 42.9, -0.8%, ?, -1.8%, -25.8%
- CCCCCOc1ccc(N2C(=O)C3C4C=CC(C3C2=O)N(C)C4=O)cc1 (stereo not given)
    2.7, 5.5, -0.9, 3.5%, -15.8%, -0.7%, 17.8%
- Cc1c(CCC(=O)O)c(=O)n2c([nH]c3ccccc32)c1C#N
    1.7, -0.8, 6.2, 15.1%, -4.9%, -1.8%, 9.9%
- Cc1ccc(C(CNC(=O)Nc2ccccc2)N2CCN(C)CC2)cc1 (stereo not given)
    0.8, -9.1, -12.9, 6.8%, 4.6%, 0.3%, 11.5%
- CCOC(=O)c1c(-c2ccccc2)oc2ccc(OC)cc12
    -0.5, 13.2, 10.4, -3.7%, 0.7%, 10µM*, ?
- CC(=O)Nc1ccc(NC(=O)CN(c2ccc([N+](=O)[O-])cc2)S(=O)(=O)c2ccccc2)cc1
    0.9, 6.1, -5.0, 7.1%, -14.2%, 0.3%, -16.9%
- COc1cc(NS(=O)(=O)c2ccc(F)cc2)c(C(=O)O)cc1OC
    0.3, -1.4, 1.1, 8.3%, -7.7%, ?, 11.0%
- O=C(CSc1nc2ccccc2o1)N1c2ccccc2Sc2ccccc21
    -0.1, -2.6, 25.2, 6.4%, -11.5%, 4.2%, 7.0%
- COc1ccc(CNc2ncc(-c3ccccc3)n2C)c(OC)c1OC
    1.5, 2.2, 11.4, -29.2%, -3.1%, -17.1%, ?
- CCC(NS(=O)(=O)c1cn(C)nc1C)c1ccccc1 (stereo not given)
    -2.3, 0.9, -6.6, 11.7%, -4.6%, ·, -9.3%[15.4 µM]
- O=C1N=C(N2CCCCC2)SC1=C1CCCC1
    -1.1, 12.8, 0.1, -18.3%, 0.1%, -1.0%, 0.1%
- COc1ccc(CN(C)C(=O)c2ccc(NS(=O)(=O)c3ccc(F)cc3)cc2)c(OC)c1OC
    ·, 10.2, -8.4, 10.5%, -23.0%, -1.5%, 8.8%[15.4 µM]
- O=C(NCC1(N2CCCCC2)CCCCC1)c1ccc(NS(=O)(=O)c2ccc(F)cc2)cc1
    ·, -5.9, 2.8, ·, 10.3%, -1.5%, -22.7%
- Cc1cc(NS(=O)(=O)c2ccc(CC(C)C)cc2)no1
    0.4, 1.3, -11.5, 13.7%, -9.1%, -0.5%, 15.2%
- COc1cccc(-c2c[nH]c(=O)[nH]c2=O)c1
    0.1, 0.3, 6.2, 20.1%, ·, ·, 1.4%[15.4 µM]

Compound activity from PubChem.

The order is random, and some 4.9% of all compounds hit somewhere here.
